Screening data: PubChem, Broad Institute
ID4 SMM: binds human ID4 protein on microarray. P47928. small molecule microarray, Flag-ID4 binding, fluorescence F/B. calls only. 1.2% of 31,000 active. AID 624137;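 active means spot signal over background at p below 0.07 in all four prints; compounds were printed on slides so no solution concentration is given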;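 further: a binder raises fluorescence above local background on the spot; about 2 pmol printed per array spot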
Target sequence (P47928 whole entry, looked up): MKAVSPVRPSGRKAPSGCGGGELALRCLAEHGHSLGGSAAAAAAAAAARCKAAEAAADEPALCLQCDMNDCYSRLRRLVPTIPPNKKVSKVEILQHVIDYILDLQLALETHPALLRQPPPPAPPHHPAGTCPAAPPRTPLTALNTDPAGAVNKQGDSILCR
Calls only; i = inactive.

SMILES | ID4 SMM
CC(C)=CCc1c(O[C@@H]2O[C@H](CO)[C@@H](O)[C@H](O)[C@H]2O)cc(O)c2c1O[C@H](c1ccc(O)cc1)CC2=O | i
C[C@@H]1CN([C@@H](C)CO)C(=O)Cc2cc(NC(=O)C3CCCCC3)ccc2O[C@H]1CN(C)C | i
CN(CC(=O)Nc1ccncc1)S(=O)(=O)c1ccc(Br)cc1 | i
CN(C)c1ccc2c(c1)[C@H]1C[C@H](CC(=O)NCc3ccncc3)O[C@H](CO)[C@H]1O2 | i
NC(=O)CCCc1c[nH]c2ccccc12 | i
O=C(N[C@H]1C=C[C@H](CC(=O)N2CCOCC2)O[C@@H]1CO)c1ccc2c(c1)OCO2 | i
C[C@H](CO)N1C[C@H](C)[C@@H](CN(C)CC2CCOCC2)Oc2cc(C#CC3CC3)ccc2S1(=O)=O | i
COCC#Cc1ccc2c(c1)O[C@H](CN(C)Cc1ccccn1)[C@H](C)CN([C@@H](C)CO)S2(=O)=O | i
O=C(C[C@H]1C=C[C@H](NC(=O)CCN2CCCCC2)[C@@H](CO)O1)Nc1ccc(-c2ccccc2)cc1 | i
Cc1nc2ccccc2n1CC(O)COc1ccc(C2C=CCC2)cc1 (stereo not drawn) | i
Cc1c(F)cccc1NC(=O)C1CC=CCC1C(=O)O (stereo not drawn) | i
CC(C)C#Cc1cnc2c(c1)C(=O)N([C@@H](C)CO)C[C@H](C)[C@H](CN(C)C(=O)c1ccccc1)O2 | i
O=c1oc(Cl)c(Cl)c2ccccc12 | i
COc1ccccc1NC(=O)Cn1cnc2ccccc2c1=O | i
C[C@@H]1CN([C@@H](C)CO)C(=O)c2cc(C#CC3CC3)cnc2O[C@H]1CN(C)Cc1ccccn1 | i
CCNC(=O)C[C@H]1CC[C@H](NC(=O)C2CCC2)[C@@H](CO)O1 | i
O=C(C[C@@H]1C[C@@H]2c3cc(NC(=O)Cc4ccncc4)ccc3O[C@@H]2[C@@H](CO)O1)NCCN1CCCCC1 | i
CCOC(=O)C(Cc1ccc(O)cc1)NC(C)=O (stereo not drawn) | i
CC(C)COC(=O)N(C)C[C@@H]1OCc2ccccc2-c2ccccc2C(=O)N([C@H](C)CO)C[C@@H]1C | i
Cc1ccnc(NS(=O)(=O)c2ccc(NC(=O)c3csc(C)c3)cc2)n1 | i

Four entries from above in another layout:
Molecule: C[C@H](CO)N1C[C@H](C)[C@@H](CN(C)CC2CCOCC2)Oc2cc(C#CC3CC3)ccc2S1(=O)=O
  ID4 SMM: i
Molecule: COCC#Cc1ccc2c(c1)O[C@H](CN(C)Cc1ccccn1)[C@H](C)CN([C@@H](C)CO)S2(=O)=O
  ID4 SMM: i
Molecule: O=C(C[C@H]1C=C[C@H](NC(=O)CCN2CCCCC2)[C@@H](CO)O1)Nc1ccc(-c2ccccc2)cc1
  ID4 SMM: i
Molecule: Cc1nc2ccccc2n1CC(O)COc1ccc(C2C=CCC2)cc1 (stereo not drawn)
  ID4 SMM: i

More records follow.
SMILES | ID4 SMM
Cc1nn(CC(=O)Nc2cc(Cl)cc(Cl)c2)c(C)c1[N+](=O)[O-] | i
C[C@H](CO)N1C[C@H](C)[C@@H](CN(C)C(=O)CN(C)C)Oc2cc(-c3ccc(C#N)cc3)ccc2S1(=O)=O | i
O=C(NCSCc1cccc(C(F)(F)F)c1)Nc1ccc(F)c(Cl)c1 | i
Cc1ccc(NC(=O)CN(c2ccc(Br)c(C)c2)S(C)(=O)=O)cc1 | i
COc1ccc2c(ccn3cc4c(c(=O)n(C)c(=O)n4C)c23)c1 | i
CC(C)(Oc1ccc(Br)cc1)C(=O)O | i
O=C(O)C1CCCCC1C(=O)Nc1ccc([N+](=O)[O-])cc1 (stereo not drawn) | i
COc1cc2cc(Oc3ccc4ccc(=O)oc4c3)c(=O)oc2cc1O | i
COc1cccc2cc(C(=O)C3C(=O)C(=O)N(CCCN(C)C)C3c3ccccc3F)oc12 (stereo not drawn) | i
COc1ccc(C#Cc2ccc3c(c2)[C@]2(C(=O)N3)[C@H](c3ccc(O)cc3)N3[C@H](c4ccccc4)[C@H](c4ccccc4)OC(=O)[C@H]3[C@@H]2C(=O)NC[C@H](O)c2ccccc2)cc1 | i
CO[C@@H](CN(C)S(=O)(=O)c1cn(C)cn1)[C@@H](C)CN(C(=O)Nc1ccc(C(F)(F)F)cc1)[C@@H](C)CO | i
CC(C)NC(=O)N[C@H]1CC[C@@H](CC(=O)NCCCN(C)C)O[C@H]1CO | i
COc1ccc([N+](=O)[O-])cc1NC(=O)CN(c1cc(C(F)(F)F)ccc1Cl)S(C)(=O)=O | i
C[C@@H]1CN([C@@H](C)CO)C(=O)c2cc(C#CCN(C)C)cnc2O[C@@H]1CN(C)Cc1ccccc1F | i
C[C@@H]1CN([C@H](C)CO)C(=O)c2cc(-c3ccccc3F)cnc2O[C@H]1CN(C)C(=O)C1CC1 | i
COc1ccccc1-n1c(SCC(=O)Nc2cccc3ccccc23)nc(O)cc1=O | i
O=C(CC1CC1)Nc1ccc2c(c1)[C@H]1C[C@H](CC(=O)N3CCc4ccccc4C3)O[C@@H](CO)[C@H]1O2 | i
C[C@H](CO)N1C[C@H](C)[C@H](CN(C)C(=O)Nc2ccc(F)cc2)Oc2ccc(N(C)C)cc2CC1=O | i
COC1=CC(=O)OC(CCc2ccc(OC)c(OC)c2)C1 (stereo not drawn) | i
CCn1c(SCC(=O)Nc2ccc(F)cc2F)nnc1-c1ccccc1OC | i

Random excerpt: 2 compounds from above, in no set order.
SMILES | ID4 SMM
COc1ccc([N+](=O)[O-])cc1NC(=O)CN(c1cc(C(F)(F)F)ccc1Cl)S(C)(=O)=O | i
COc1ccc(C#Cc2ccc3c(c2)[C@]2(C(=O)N3)[C@H](c3ccc(O)cc3)N3[C@H](c4ccccc4)[C@H](c4ccccc4)OC(=O)[C@H]3[C@@H]2C(=O)NC[C@H](O)c2ccccc2)cc1 | i

The list continues:
SMILES | ID4 SMM
COC(=O)c1cc(NC(=O)CSc2nnc(N)s2)ccc1Cl | i
COc1ccc(OC)c(NC(=O)Nc2cccc(Cn3cccn3)c2)c1 | i
COc1ccc(NC(=O)CNC(=O)c2ccco2)cc1 | i
O=C(CN1C(=O)c2cccc3cccc1c23)Nc1ccc(S(=O)(=O)N2CCOCC2)cc1 | i
C[C@@H]1CN([C@H](C)CO)S(=O)(=O)c2ccc(C3=CCCC3)cc2O[C@H]1CN(C)Cc1ccccc1 | i
O=C(C[C@H]1C=C[C@@H](NC(=O)C2CC2)[C@H](CO)O1)Nc1ccccc1 | i
C[C@H](CO)N1C[C@H](C)[C@H](CN(C)Cc2cccnc2)OCc2ccccc2-c2ccccc2C1=O | i
COc1ccc(S(=O)(=O)N(C)CC(=O)Nc2cccc(C(F)(F)F)c2)cc1 | i
C[C@H]1CN([C@@H](C)CO)C(=O)c2cc(NC(=O)C3CC3)ccc2O[C@H]1CN(C)CC1CC1 | i
O=C(O)C1=CCCN(CCON=C(c2ccccc2)c2ccccc2)C1 | i
O=C(COc1ccc(F)cc1)N(c1ccccn1)C1CCCCC1 | i
O=C(C[C@H]1C=C[C@H](NC(=O)Cc2cccnc2)[C@@H](CO)O1)Nc1ccccc1 | i
C[C@H]1CN([C@@H](C)CO)C(=O)c2c(c3ccccc3n2C)-c2ccccc2CO[C@H]1CN(C)C(=O)CCC(F)(F)F | i
C[C@H]1CN([C@@H](C)CO)S(=O)(=O)c2ccc(C#CC3CC3)cc2O[C@H]1CN(C)C | i
COc1ccc(CNC(=O)C[C@H]2C[C@@H]3c4cc(NS(=O)(=O)c5ccc(F)cc5)ccc4O[C@@H]3[C@@H](CO)O2)cc1 | i
CCCC#Cc1ccc2c(c1)O[C@H](CN(C)C(=O)CN(C)C)[C@@H](C)CN([C@H](C)CO)S2(=O)=O | i
Cc1noc(C)c1C(=O)NCc1ccccn1 | i
C[C@@H]1CN([C@@H](C)CO)C(=O)c2ccccc2-c2ccccc2CO[C@@H]1CN(C)C(=O)[C@@H]1CCCN1C | i
N#Cc1cc2c(nc1SCC(=O)Nc1ccccc1C(F)(F)F)CCCCC2 | i
C/C=C/c1cnc2c(c1)C(=O)N([C@@H](C)CO)C[C@@H](C)[C@@H](CN(C)C(=O)c1ccc3c(c1)OCO3)O2 | i
O=C(C[C@H]1CC[C@@H](NC(=O)C2CCC2)[C@@H](CO)O1)NCc1ccccc1Cl | i
C[C@H](CO)N1C[C@H](C)[C@H](CN(C)Cc2ccncc2)Oc2ncc(C#CCN(C)C)cc2C1=O | i
C[C@H]1CN([C@@H](C)CO)C(=O)c2cc(-c3cccc(F)c3)cnc2O[C@@H]1CN(C)Cc1ccccc1 | i
Cn1nnnc1SCC(=O)Nc1ccc2ccccc2c1 | i
Cc1sc2nc(SCC(=O)c3ccc4c(c3)OCCO4)n(-c3ccccc3)c(=O)c2c1C | i
Cc1ccc(-c2nc3ccccc3o2)cc1NC(=O)COc1c(C)cc(Cl)cc1Cl | i
COc1ccc(-c2ccc3c(c2)O[C@@H](CN(C)CC2CCOCC2)[C@H](C)CN([C@H](C)CO)S3(=O)=O)cc1 | i
O=C(COc1ccccc1Cl)Nc1ccc([N+](=O)[O-])cc1O | i
C[C@@H]1CN([C@H](C)CO)S(=O)(=O)c2ccc(-c3cccnc3)cc2O[C@H]1CN(C)C(=O)NC1CCCCC1 | i
COCC(=O)N(C)C[C@@H]1Oc2cc(Br)ccc2S(=O)(=O)N([C@@H](C)CO)C[C@@H]1C | i
CCCN(C)C[C@H]1Oc2ncc(-c3cccc(C(=O)N(C)C)c3)cc2C(=O)N([C@@H](C)CO)C[C@@H]1C | i
CCCC#Cc1cnc2c(c1)C(=O)N([C@H](C)CO)C[C@H](C)[C@H](CN(C)Cc1ccccc1F)O2 | i
O=C(C[C@@H]1CC[C@H](NC(=O)Cc2ccccn2)[C@@H](CO)O1)NCCc1ccccc1 | i
COC1(C(=O)NN)COc2ccccc2O1 (stereo not drawn) | i
Cc1ccnc(NC(c2cccc([N+](=O)[O-])c2)c2ccc3ccc(C)nc3c2O)c1 (stereo not drawn) | i
CNC[C@@H]1Oc2ccc(N(C)C)cc2C(=O)N([C@@H](C)CO)C[C@@H]1C | i
Cc1ccc(-c2ccc3c(c2)O[C@@H](CN(C)Cc2ccc(C(=O)O)cc2)[C@@H](C)CN([C@H](C)CO)S3(=O)=O)cc1 | i
CCCNC(=O)N(C)C[C@H]1Oc2cc(C3=CCCCC3)ccc2S(=O)(=O)N([C@H](C)CO)C[C@@H]1C | i
O=C(C[C@H]1C=C[C@@H](NC(=O)c2ccccn2)[C@@H](CO)O1)NCc1cc(F)cc(F)c1 | i
Cc1ccccc1NS(=O)(=O)c1cccc(C(=O)Nc2ccccc2[N+](=O)[O-])c1 | i
C[C@H](CO)N1C[C@H](C)[C@H](CN(C)C(=O)CN(C)C)Oc2ncc(C#CCC3CCCC3)cc2C1=O | i
O=C(COc1ccc(S(=O)(=O)N2CCOCC2)cc1)Nc1ccccc1 | i
COc1ccc(NC(=O)c2ccco2)c(NC(=O)CSc2ccc(Cl)cc2)c1 | i
CC(=O)C1=C(C)Nc2ncnn2C1c1ccccc1[N+](=O)[O-] (stereo not drawn) | i
COC(=O)C[C@H]1CC[C@H](NC(=O)c2ccccc2)[C@@H](CO)O1 | i
CS(=O)(=O)N(CC(=O)Nc1cccc(Cl)c1Cl)c1cccc(F)c1 | i
CCCc1cn(CC[C@H]2CC[C@@H](NC(=O)C3CC3)[C@@H](CO)O2)nn1 | i
COc1cccc(NC(=O)N[C@H]2C=C[C@H](CC(=O)NCc3ccncn3)O[C@@H]2CO)c1 | i
CC(C)CC#Cc1cnc2c(c1)C(=O)N([C@H](C)CO)C[C@H](C)[C@@H](CN(C)C(=O)CC1CC1)O2 | i
C[C@H](NC(=O)C[C@@H]1C=C[C@@H](NC(=O)C2CC2)[C@H](CO)O1)c1ccccc1 | i
CCOC(=O)c1sc(N2C(=O)C(=O)C(C(=O)c3ccc(OC)c(C)c3)C2c2ccco2)nc1C (stereo not drawn) | i
COC(=O)c1c(NC(=S)Nc2cccc(NC(C)=O)c2)sc(C)c1C | i
Cc1ccccc1-c1noc(CCC(=O)Nc2ccc(Cl)cc2)n1 | i
O=C(CSc1nnc(-c2cccs2)n1-c1ccccc1)N1CCOCC1 | i
Cn1ccnc1SCC(=O)N1c2ccccc2C(C)(c2ccc(Cl)cc2)CC1(C)C (stereo not drawn) | i
COC(=O)c1ccccc1NC(=O)CSc1nc2ccccc2c(=O)[nH]1 | i
COC(=O)C(CC#Cc1ccc2c(c1)[C@]1(C(=O)N2)[C@H](C(=O)O)[C@H]2C(=O)O[C@H](c3ccccc3)[C@H](c3ccccc3)N2[C@@H]1c1ccc(O)cc1)C(=O)OC | i
COc1cccc(NC(=O)N[C@H]2C=C[C@H](CC(=O)N3CCOCC3)O[C@@H]2CO)c1 | i
O=C(C[C@@H]1C=C[C@@H](NC(=O)CN2CCOCC2)[C@H](CO)O1)NCc1cccc(F)c1 | i
Cn1cnc(S(=O)(=O)N[C@@H]2C=C[C@H](CC(=O)NCC3CCCCC3)O[C@H]2CO)c1 | i
(listing goes on)
SMILES | ID4 SMM
C[C@@H]1CN([C@H](C)CO)C(=O)Cc2cc(NC(=O)CCC(F)(F)F)ccc2O[C@H]1CN(C)CC1CC1 | i
C[C@@H]1CN([C@H](C)CO)S(=O)(=O)c2ccc(C#CC3(O)CCCC3)cc2O[C@@H]1CN(C)C(=O)c1ccncc1 | i
Cc1cc(Cl)c(S(=O)(=O)Nc2ccc3c(c2)OCCO3)cc1OCC(N)=O | i
C[C@@H]1CN([C@@H](C)CO)C(=O)c2cc(C#CCN(C)C)cnc2O[C@H]1CN(C)C(=O)c1ccc(F)cc1 | i
COc1cc(C)c(Cl)cc1S(=O)(=O)NCCCN1CCOCC1 | i
CC(C)C#Cc1cnc2c(c1)C(=O)N([C@H](C)CO)C[C@@H](C)[C@H](CN(C)Cc1ccccc1)O2 | i

3 structures already listed, ordered by molecular weight, highest first:
SMILES | ID4 SMM
C[C@@H]1CN([C@H](C)CO)S(=O)(=O)c2ccc(C#CC3(O)CCCC3)cc2O[C@@H]1CN(C)C(=O)c1ccncc1 | i
CC(C)C#Cc1cnc2c(c1)C(=O)N([C@H](C)CO)C[C@@H](C)[C@H](CN(C)Cc1ccccc1)O2 | i
COc1cc(C)c(Cl)cc1S(=O)(=O)NCCCN1CCOCC1 | i

A portion of the library (hit frequency here may not be typical).
